Screens from PubChem BioAssay.
FGF22 binding: FGF22 (human) thermal shift binding; recombinant FGF22 thermal shift, SYPRO orange fluorescence; percent of sucrose octasulfate shift, DMSO zero; 340,000 tested, 1.5% active; calls only at 9.99 µM; Q9HCT0;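 active means melting point raised past a set limit in the mean and every replicate; three in four hits are not shown here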
Target sequence (Q9HCT0 whole entry, looked up): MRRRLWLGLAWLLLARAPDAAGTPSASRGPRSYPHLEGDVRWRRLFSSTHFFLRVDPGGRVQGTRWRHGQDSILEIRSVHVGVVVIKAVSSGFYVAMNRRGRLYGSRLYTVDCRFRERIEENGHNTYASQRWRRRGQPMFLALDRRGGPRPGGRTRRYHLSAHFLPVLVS
UCH37 inh: human UCH37 deubiquitinating enzyme inhibition; Q9Y5K5; purified proteasome/UCH37, Ub-AMC cleavage fluorescence; inhibition, % (test concentration not listed); 330,000 tested, 0.33% active; AID 588478;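 active means mean of two replicates above 20%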;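 further: 0% = compound-free wells with enzyme and 100% = wells lacking proteasome; stock transfer was 100 nL into about 20 µL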
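system = Proteasome-associated human UCH37 deubiquitinase | amount = 0.15 nM proteasome as dispensed | medium = pH 7.4 Tris-HCl (50 mM) with ovalbumin, ATP-MgCl2, DTT | incubation = 30 min preincubation with enzyme, 25 min cleavage at room temperature | detection = AMC fluorescence 355/460 nm | read-out basis = percent inhibition | controls = no-proteasome and no-compound wells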
Ecoli growth: blocks Escherichia coli growth; OD600, 23 h; stronger effect = lower value; OD600 absorbance (no concentration beside the values); 330,000 tested, 0.21% active; AID 1053175;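 active means OD600 absorbance below the run mean of sample wells minus 3.6 SD, in any replicate, cut at about 0.56 in these data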;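 further: stock transfer was 300 nL into about 60 µL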
B2AR ag: activates human beta-2 adrenergic receptor causing internalization; P07550; response, % (no concentration beside the values); 340,000 tested, 0.43% active; Am2.2-beta2AR cells, FAP receptor internalization, flow cytometry; reference of the scale not given here; AID 504454;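 active means response above a set limit, near 3 SD of response in nonfluorescent compounds, cut at about 42% in these data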;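 further: stock transfer was 100 nL into about 11 µL; a reference agonist was the positive control; negative values mostly stem from fluorescent compounds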
LANA-H2A inh: blocks KSHV LANA binding to histone H2A/H2B. Q9QR71. cell-free LANA-H2A/H2B peptide, fluorescence polarization. inhibition, % (test concentration not listed). 320,000 tested, 0.6% active; in the data active means inhibition mostly above about 10%, no sharp cut-off; inactive means mostly below about 6.7%;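 further: stock transfer was 7.5 nL into about 10 µL; 0% = median of vehicle wells and 100% = median of positive control wells; one replicate is shown; the record names a cut of 25% in any replicate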
ALR inh: human ALR oxidase inhibition via reduced H2O2 | purified ALR, DTT oxidation, H2O2 HRP-luminol luminescence | inhibition, % (concentration not given with the values) | 290,000 tested, 3.8% active | AID 485317;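 active means mean and each replicate at 75% or more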;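 further: stock transfer was 7.5 nL into about 7.5 µL; 0% = neutral wells and 100% = wells with inactivated enzyme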
Target sequence (P55789 whole entry, looked up): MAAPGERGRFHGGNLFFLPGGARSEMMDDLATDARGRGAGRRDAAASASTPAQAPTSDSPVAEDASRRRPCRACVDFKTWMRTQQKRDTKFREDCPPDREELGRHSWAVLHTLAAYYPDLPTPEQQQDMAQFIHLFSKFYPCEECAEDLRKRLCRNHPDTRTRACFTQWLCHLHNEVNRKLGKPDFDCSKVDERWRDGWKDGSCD
HNF4A DNA FP: change in binding of human HNF4 alpha to DNA; P41235; HNF4a-FITC DNA binding, fluorescence polarization, 1 h; activity change, % at 10 µM; 360,000 tested, 0.3% active; AID 1224865; in the data active means activity change above about 30%, passing the limit was not always enough;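 further: controls were the assay level and a saturating level of protein; the project sought stronger binding though the title names inhibitors; some compounds called inactive have numbers as strong as hits; positive values seem to mean higher polarization but the record does not say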
Target sequence (P41235 whole entry, looked up): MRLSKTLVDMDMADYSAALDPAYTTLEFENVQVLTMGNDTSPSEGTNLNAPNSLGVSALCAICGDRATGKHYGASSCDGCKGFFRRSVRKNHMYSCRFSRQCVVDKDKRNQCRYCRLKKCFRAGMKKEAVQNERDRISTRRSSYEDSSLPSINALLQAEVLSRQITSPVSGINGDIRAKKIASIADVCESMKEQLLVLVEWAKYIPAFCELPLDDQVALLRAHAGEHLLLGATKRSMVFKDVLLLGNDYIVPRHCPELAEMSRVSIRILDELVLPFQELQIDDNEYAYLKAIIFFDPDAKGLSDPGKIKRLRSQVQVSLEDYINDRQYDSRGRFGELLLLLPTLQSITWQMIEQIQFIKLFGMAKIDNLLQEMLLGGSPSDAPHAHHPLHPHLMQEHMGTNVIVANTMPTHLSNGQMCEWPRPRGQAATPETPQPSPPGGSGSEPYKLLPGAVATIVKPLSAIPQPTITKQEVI
* hit, by the source's call; i = inactive; / = not tested or not shown; + = active, no number.

SMILES | FGF22 binding | UCH37 inh | Ecoli growth | B2AR ag | LANA-H2A inh | ALR inh | HNF4A DNA FP
COc1ccc(C2CC(=O)Nc3cc(OC)c(OC)cc32)cc1Br (centres undefined) | i | 3.2 | 0.67 | -1 | -1.6 | -8 | 1.3
COc1cccc2cc(C(=O)OCC(=O)NC3CCCC(C)C3C)c(=O)oc12 (centres undefined) | / | 1.5 | 0.7 | -2 | / | / | -0.1
O=C(NC1CCCCC1)c1ccc2c(=O)n(CC3CCCO3)c(=O)[nH]c2c1 (centres undefined) | / | -13 | 0.74 | -6 | -0.4 | -1 | 5.3
CCCOc1ccc(C(=O)CCC(=O)OCC(=O)N2CCN(S(=O)(=O)c3ccc(C)cc3C)CC2)cc1 | i | 1.7 | 0.71 | -1 | / | / | 4.2
Nc1ccc(C(=O)c2cccs2)cc1[N+](=O)[O-] | i | 6.6 | 0.65 | -6 | 1.5 | 5 | -2.1
CC(C)C(=O)Nc1sc2c(c1C#N)CCCCC2 | / | 4.4 | 0.7 | -3 | 6.1 | -9 | 2.5
O=S(=O)(c1cccs1)N1CCc2ccccc21 | / | -0.1 | 0.7 | -7 | -11 | -2 | 33
COc1ccccc1NC(=O)Cn1c(=O)n(C)c(=O)c2sc3c(c21)COC(C)(C)C3 | i | 2.7 | 0.7 | 2 | -1.0 | -4 | 13
O=c1[nH]c(CN2CCN(C/C=C/c3ccccc3)CC2)nc2cc(Cl)ccc12 | / | 0.4 | 0.67 | 3 | 8.9 | -5 | 0.4
O=C(CCC(=O)Nc1ccc(F)cc1)N/N=C/c1cccnc1 | i | / | / | -2 | -0.6 | -19 | 2.3
COC(=O)c1ccccc1NC(=O)CCCCCn1nnc2ccccc2c1=O | i | 3.4 | 0.68 | -12 | -7.0 | 2 | -1.9
O=C(CNC(=O)c1ccccc1F)OC1CCOC1=O (centres undefined) | i | 1.6 | 0.72 | -7 | 4.2 | / | 8.0
COc1ccc(S(=O)(=O)Nc2ccc3oc4ncccc4c(=O)c3c2)cc1OC | i | 4.6 | 0.69 | -2 | -0.4 | / | -5.9
O=C(N[C@@H](Cc1c[nH]c2ccccc12)C(=O)O)OCC1c2ccccc2-c2ccccc21 | i | 1.8 | 0.73 | 0 | / | / | -2.6
COC(=O)N/N=C/c1ccc(-c2cc(Cl)ccc2Cl)o1 | / | / | / | -10 | 4.1 | -4 | -2.9
COC(=O)/C(=C/Nc1cccc2ccccc12)[N+](=O)[O-] | i | -115 | 0.68 | 6 | 0.0 | 48 | 2.3
COc1ccc(-n2c(SCC#N)nnc2-c2ccc(NS(=O)(=O)c3ccc(C)cc3)cc2)cc1 | / | 0.7 | 0.73 | 20 | 0.0 | 7 | 4.2
Cc1cccc2nc(C(=O)Nc3cccc(C(=O)NC4CC4)c3)cn12 | i | 3.4 | 0.69 | 0 | -8.6 | -6 | -0.6
CCCNC(=O)C1CCN(c2cc(-c3ccccc3)nc3ncnn23)CC1 | / | -1.4 | 0.7 | -14 | -6.0 | -4 | -3.5
CC1CC(C)CN(c2nc3c(c(=O)n(C)c(=O)n3C)n2CCSc2ncccn2)C1 (centres undefined) | i | 4.8 | 0.73 | 0 | 22* | / | -0.1
C=CCNC(=O)/C(=C\C=C\c1ccccc1)NC(=O)c1ccc(OCCCC)cc1 | / | 4.4 | 0.77 | -8 | 1.8 | 3 | -1.2
Cc1cc(C)cc(NC(=O)Nc2ccc3c(c2)CCC3)c1 | i | 0.4 | 0.67 | 3 | 8.7 | 1 | 0.5
CCOC(=O)/C(=C\c1ccc(OC(F)F)cc1)C1=Nn2c(nnc2-c2ccc(Cl)cc2)SC1 | / | 4.1 | 0.74 | 80* | -4.4 | -1 | -6.0
N#Cc1c(N)n(CCOC(=O)c2cccc([N+](=O)[O-])c2)c2nc3ccccc3nc12 | / | -16 | 0.7 | -3 | -0.5 | -2 | 7.7
CS(=O)(=O)N1CCN(C2Cc3ccccc3C2)CC1 | / | -0.8 | 0.69 | 13 | -3.0 | -11 | -1.4
Cc1cnc(CN(C)C(=O)c2ccc3oc(Cc4ccc(Cl)cc4)nc3c2)[nH]1 | i | 3.0 | 0.69 | -9 | -0.3 | 0 | 0.6
COc1ccccc1CNC(=O)c1cccc(S(=O)(=O)N(C)c2ccccc2)c1 | i | 4.3 | 0.68 | -1 | -3.7 | -7 | -1.9
COC(=O)c1ccc(-c2ccc(OC)c([C@H]3[C@H]4C=CC[C@@H](C)[C@@H]4C(=O)N3Cc3ccccc3)c2)cc1 | i | 2.7 | / | 17 | -0.8 | / | -1.1
CCS(=O)(=O)c1ccc2c(c1)NC(=O)C(CCO)O2 (centres undefined) | i | -0.1 | 0.7 | -1 | -0.5 | -2 | -3.0
CS(=O)(=O)c1ccc(C(=O)NC2CCCCC2)cc1 | / | 9.8 | 0.71 | -6 | 3.2 | 58 | 4.9
CCOCCn1c(COc2ccc(C)cc2)nc2ccccc21 | / | 6.4 | 0.66 | 6 | -7.3 | -5 | -5.0
Cn1c(/C=C/c2ccc(Br)cc2)nc2ccccc2c1=O | i | -54 | 0.69 | -4 | 4.8 | 7 | 0.2
COc1ccc(NCc2nnc(SCC(=O)Nc3ccccc3OC)o2)cc1 | / | 4.1 | 0.63 | -1 | -2.6 | 19 | 2.7
NC(=O)C1CCN(CC(=O)Nc2ccccc2N2CCOCC2)CC1 | i | 0.3 | 0.64 | 1 | -3.4 | -6 | -1.8
CC(C)(C)S(=O)N1Cc2cc(CO)cc(CCO)c2[C@H]1CCO (some centres undefined) | i | -1.2 | 0.7 | -9 | / | / | -0.7
COc1ccc(-n2c(Cc3cccn3C)nnc2SCC(=O)Nc2ccc3c(c2)OCCO3)cc1 | i | 1.8 | 0.72 | 2 | -2.3 | 32 | 0.9
CC(=O)Nc1cc(C)c2nc(NC(C)=O)sc2c1 | i | 3.3 | 0.7 | -8 | 2.6 | 5 | 3.0
Nc1ccc(-n2ccnc2)cc1 | / | 2.2 | 0.74 | -3 | 2.8 | -1 | -3.0
O=C(Oc1ccc(/C=N/Nc2ccccc2)cc1)c1ccccc1 | / | / | / | -11 | -2.6 | 4 | 1.7
CCN(CC(=O)NC(=O)NCc1ccco1)Cc1ccccc1 | i | 0.9 | 0.68 | -3 | -0.6 | -3 | -2.5
CCCn1c(CN(C)Cc2ccccc2)nc2c1c(=O)n(C)c(=O)n2C | / | 4.1 | 0.66 | 1 | 2.2 | / | 4.8
Nc1cc(=O)[nH]c(SCCSc2ccccc2F)n1 | i | 2.4 | 0.6 | 9 | 1.0 | 1 | 0.7
Cc1ccc(S(=O)(=O)N2CCOCC2)cc1NC(=O)Nc1ccc([N+](=O)[O-])cc1 | i | 5.0 | 0.67 | 9 | 3.7 | 1 | 4.7
N#CCCN(Cc1ccccc1)C(=S)Nc1ccc(F)cc1 | i | 3.3 | 0.69 | -1 | -3.6 | -11 | 5.6
CN1CCN(c2ccc([N+](=O)[O-])cc2/C=N/NC(=O)c2cccc([N+](=O)[O-])c2)CC1 | i | / | / | / | 4.9 | -9 | /
Cn1nc(C(=O)NC2CCCCC2)c2c1-c1ccccc1S(=O)(=O)C2 | i | 0.6 | 0.61 | 10 | 4.1 | 10 | 0.3
Cc1ccccc1/C=C/C(=O)NCC(=O)N1CCC(N(C)C2CCCCC2C)CC1 (centres undefined) | i | 1.7 | / | -2 | 2.5 | 1 | -0.9
COc1ccc(N=Cc2nc(-c3ccco3)oc2O)cc1 | / | 5.9 | 0.65 | -11 | 6.5 | 92* | -2.0
CCOC(=O)N1CCN(S(=O)(=O)c2cccc3nsnc23)CC1 | / | 4.2 | 0.7 | -4 | 3.5 | -3 | -2.9
CC(C)[C@H](NS(=O)(=O)c1ccccc1)C(=O)OCC(=O)NC(=O)c1cccn1C | / | 3.5 | / | -4 | -5.8 | 17 | 0.5
Cc1cc(Br)c2nc3c(c(C(=O)O)c2c1)CCCCC3 | / | -2.7 | 0.68 | 5 | / | -1 | 2.8
CN(C)CC1CCC/C(=C\c2ccc(OC(=O)c3ccc(Cl)cc3)cc2)C1=O (centres undefined) | i | / | / | 12 | / | / | 4.9
CC(C)(C)c1ccccc1NC(=S)NCc1ccccc1 | / | 0.4 | 0.7 | -2 | -1.4 | / | -2.0
S=C(NCCN1CCOCC1)Nc1ccc(-c2nc3ccccc3[nH]2)cc1 | + | 3.5 | 0.68 | -4 | -1.0 | -7 | 2.7
CCCCNC(=O)N1CCCN(c2ccc(C#N)cn2)CC1 | i | 1.5 | 0.68 | 2 | 0.6 | 4 | 2.6
CC(C)(C)c1nc2c(s1)CCc1onc(-c3ccc(Br)cc3)c1-2 | i | 1.4 | 0.68 | -1 | -6.5 | -6 | -1.2
O=C(Nc1cc(=O)[nH]c(=O)[nH]1)c1cc(Cl)ccc1Cl | i | / | / | 16 | 0.5 | / | -0.5
CCn1c(=O)c(C(=O)NCCNCCO)c(O)c2ccccc21 | / | 2.3 | 0.66 | 0 | -2.2 | -8 | -0.4
O=C(CSc1nnc(CNC(=O)c2ccc(F)cc2)o1)NCC1CCCO1 (centres undefined) | i | 1.1 | 0.66 | 7 | 18* | -15 | -1.4
CC1CCCCC1NC(=O)COC(=O)c1ccc2c(c1)OCCO2 (centres undefined) | i | / | / | -1 | 0.9 | 0 | 0.1

Shown with two lines to a compound: five of the compounds above
Every second line gives: FGF22 binding, UCH37 inh, Ecoli growth, B2AR ag, LANA-H2A inh, ALR inh, HNF4A DNA FP
> Cn1c(/C=C/c2ccc(Br)cc2)nc2ccccc2c1=O
  i, -54, 0.69, -4, 4.8, 7, 0.2
> O=c1[nH]c(CN2CCN(C/C=C/c3ccccc3)CC2)nc2cc(Cl)ccc12
  /, 0.4, 0.67, 3, 8.9, -5, 0.4
> COc1ccccc1NC(=O)Cn1c(=O)n(C)c(=O)c2sc3c(c21)COC(C)(C)C3
  i, 2.7, 0.7, 2, -1.0, -4, 13
> CC(C)(C)c1nc2c(s1)CCc1onc(-c3ccc(Br)cc3)c1-2
  i, 1.4, 0.68, -1, -6.5, -6, -1.2
> CCOCCn1c(COc2ccc(C)cc2)nc2ccccc21
  /, 6.4, 0.66, 6, -7.3, -5, -5.0

Going on with the list.
SMILES | FGF22 binding | UCH37 inh | Ecoli growth | B2AR ag | LANA-H2A inh | ALR inh | HNF4A DNA FP
Cc1ccc(-c2nnc(SCC(=O)N/N=C/c3ccc(C)s3)n2-c2ccccc2)cc1 | i | / | / | -6 | -5.6 | -12 | 1.6
CCCCn1c(SCC(=O)NC(C)CC)nc2ccc(N3CCOCC3)cc2c1=O (centres undefined) | / | -49 | 0.65 | -9 | -0.3 | -37 | -1.9
Cc1cc(=O)[nH]c(NN=C(CC(C)C)CC(C)C)n1 | i | -1.0 | 0.65 | -12 | 1.9 | -10 | -0.8
Cn1c(N)c(C(=O)COC(=O)c2ccnc3ccccc23)c(=O)n(C)c1=O | i | -1.5 | 0.72 | 2 | 4.0 | -5 | 0.1
Cc1ccc(NC(=O)C(=O)NCCN2CCN(C(=S)Nc3ccccc3)CC2)cc1 | / | 6.9 | 0.7 | 1 | 1.1 | 29 | 0.8
CN1CCC(N(C)C(=O)c2cccc(S(=O)(=O)N3CCc4ccccc43)c2)CC1 | i | 4.6 | 0.69 | 2 | 5.0 | -3 | -0.3
O=C(CC(Cc1ccccc1)C(=O)O)Nc1ccc(Cl)c(Cl)c1 (centres undefined) | i | 2.4 | 0.67 | 3 | 3.3 | 14 | -5.1
CCOc1ccc(NC(=O)C2CCCN(S(=O)(=O)c3c(C)n[nH]c3C)C2)cc1 (centres undefined) | i | 1.6 | 0.71 | -2 | -2.1 | 1 | 0.1
CS(=O)(=O)N1CCc2cc(C(=O)Nc3ccccc3)ccc21 | i | 0.3 | 0.64 | -1 | 7.6 | 36 | 0.7
O=C(Nc1nc(COc2ccccc2)cs1)c1ccccc1F | / | 4.9 | 0.73 | -3 | 4.2 | 4 | -2.9
C=CCn1nc2ccccc2c1OC | i | 3.2 | 0.71 | 3 | -0.7 | -4 | 0.3

An excerpt; the hit share may differ from the screen's.
